Screening data (PubChem BioAssay)
CBX7 inh – blocks human CBX7 binding to H3K27me3 peptide; 66,000 tested, 1.1% active; AlphaScreen His6-CBX7 / biotin-H3K27me3 peptide binding; active compounds read low; AID 1224903; normalised signal (fraction of DMSO) (no concentration beside the values); in the data active = normalised signal below about 0.5;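 note: 100 nL library stock added to about 20 µL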
Target sequence (O95931 whole entry, looked up): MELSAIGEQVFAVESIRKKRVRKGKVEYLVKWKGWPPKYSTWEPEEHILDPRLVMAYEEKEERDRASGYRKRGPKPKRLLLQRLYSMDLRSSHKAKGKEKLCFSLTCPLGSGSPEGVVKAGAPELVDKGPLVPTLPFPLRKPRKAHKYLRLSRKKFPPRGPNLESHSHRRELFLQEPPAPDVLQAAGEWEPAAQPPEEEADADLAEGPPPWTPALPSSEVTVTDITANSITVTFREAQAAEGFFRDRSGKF
CBX7 inh z-score – further read-out of CBX7 inh, marked with its call; z-score; measured here: z-score of CBX7 signal; some inactives read as strong as hits; reference of the scale not given here;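 same signal on another scale; lower means less binding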
* = called active by the depositor; & = joins results of further samples. These rows are one share of the data; rates above refer to the full screens.

COc1ccc(OCc2nnc(NC(=O)Nc3ccccc3F)s2)cc1
  CBX7 inh: 0.81; CBX7 inh z-score: -0.66
NS(=O)(=O)c1ccc(S(=O)(=O)Nc2ccccc2F)cc1
  CBX7 inh: 0.95; CBX7 inh z-score: -0.19
Clc1ccccc1-c1nc(Cc2ccccc2)no1
  CBX7 inh: 1.1; CBX7 inh z-score: 1.6
O=C(NCc1ccc2c(c1)OCO2)c1c[nH]n2c(=O)c3c(nc12)CCC3
  CBX7 inh: 1; CBX7 inh z-score: 0.69
COc1ccc(NC(=O)c2cc(-c3ccc(OC)c(OC)c3)on2)cc1OC
  CBX7 inh: 1.3; CBX7 inh z-score: 2.2
O=C(CSc1nnc(CNC(=O)c2cccs2)o1)NC1CCCC1
  CBX7 inh: 1.1; CBX7 inh z-score: 1.8
COC(=O)c1ccc(-n2nnnc2SCC(=O)Nc2ccc(F)cc2)cc1
  CBX7 inh: 1.1; CBX7 inh z-score: 1.3
Cc1ccsc1-c1nc(CSCC(=O)NCCCN2CCOCC2)c(C)o1
  CBX7 inh: 0.97; CBX7 inh z-score: -0.62
Cc1cccc(NC(=O)CN2C(=O)c3ccccc3Sc3ccc(C(=O)N4CCCC4)cc32)c1C
  CBX7 inh: 0.88; CBX7 inh z-score: -1.6
Cc1ccc(NC(=O)c2ccc3c(c2)N(Cc2cccc(Cl)c2)C(=O)c2ccccc2S3=O)cc1 (configuration not stated)
  CBX7 inh: 0.98; CBX7 inh z-score: -0.56
CCn1c(COc2cc(C)ccc2C(C)C)nc2ccccc21
  CBX7 inh: 1; CBX7 inh z-score: 1.3
c1ccc(CNc2cccc3nonc23)cc1
  CBX7 inh: 1; CBX7 inh z-score: 0.075
O=C(Nc1ccc(Br)cc1)C1CCN(S(=O)(=O)c2cccs2)CC1
  CBX7 inh: 1.1; CBX7 inh z-score: 2.6
CC(C(=O)N1CCC(C(N)=O)CC1)C1Sc2ccccc2N(Cc2ccc(F)cc2Cl)C1=O (configuration not stated)
  CBX7 inh: 1.1; CBX7 inh z-score: 1.6
CCOC(=O)N1CCC(NC(=O)CCCN2C(=O)CSc3ncccc32)CC1
  CBX7 inh: 1; CBX7 inh z-score: 0.044
CCC(C(=O)N1CC(=O)Nc2ccc(C)cc2C1c1ccccc1)c1ccccc1 (configuration not stated)
  CBX7 inh: 1.1; CBX7 inh z-score: 1.1
CCC(C)NC(=O)c1ccc2c(c1)ncn2-c1ccc(OC)cc1 (configuration not stated)
  CBX7 inh: 0.84; CBX7 inh z-score: -2
CCCCNC(=O)c1c[nH]c2ccc(S(=O)(=O)N(C)Cc3ccccc3)cc2c1=O
  CBX7 inh: 1.1; CBX7 inh z-score: 0.095
CC(=O)N1c2ccccc2N(Cc2ccccc2)C(=O)C1(C)C
  CBX7 inh: 0.86; CBX7 inh z-score: -4.9
CCn1c(-c2nonc2NC(=O)c2ccc(C(C)(C)C)cc2)nc2ccccc21
  CBX7 inh: 1; CBX7 inh z-score: 0.082
CCCCNc1c2c(nc3ccc(Br)cc13)CC(C)(C)CC2=O
  CBX7 inh: 1.1; CBX7 inh z-score: 1
CCOc1ccc2nc(N3CCCC(C(=O)NCC4CCCO4)C3)sc2c1 (configuration not stated)
  CBX7 inh: 1; CBX7 inh z-score: 0.14
CC1CCN(c2nc3ccc(C(=O)NCCCN4CCN(c5ccccc5F)CC4)cc3s2)CC1
  CBX7 inh: 1.5; CBX7 inh z-score: 4.5
Cc1ccc(CN2C(=O)c3ccccc3C2C(=O)NCCCN2CC(C)CC(C)C2)cc1 (configuration not stated)
  CBX7 inh: 1; CBX7 inh z-score: -0.033
Cc1ccc(NC(=O)Cn2nc(Cc3cccnc3)c3ccccc3c2=O)nc1
  CBX7 inh: 1; CBX7 inh z-score: 1.4

3 entries out of the list, sorted by SMILES length, lowest first:
O=C(Nc1ccc(Br)cc1)C1CCN(S(=O)(=O)c2cccs2)CC1
  CBX7 inh: 1.1; CBX7 inh z-score: 2.6
O=C(NCc1ccc2c(c1)OCO2)c1c[nH]n2c(=O)c3c(nc12)CCC3
  CBX7 inh: 1; CBX7 inh z-score: 0.69
CCCCNC(=O)c1c[nH]c2ccc(S(=O)(=O)N(C)Cc3ccccc3)cc2c1=O
  CBX7 inh: 1.1; CBX7 inh z-score: 0.095

17 entries from above, as tab-separated lines:
Structure	CBX7 inh	CBX7 inh z-score
COc1ccc(NC(=O)c2cc(-c3ccc(OC)c(OC)c3)on2)cc1OC	1.3	2.2
O=C(CSc1nnc(CNC(=O)c2cccs2)o1)NC1CCCC1	1.1	1.8
COC(=O)c1ccc(-n2nnnc2SCC(=O)Nc2ccc(F)cc2)cc1	1.1	1.3
Cc1ccsc1-c1nc(CSCC(=O)NCCCN2CCOCC2)c(C)o1	0.97	-0.62
Cc1cccc(NC(=O)CN2C(=O)c3ccccc3Sc3ccc(C(=O)N4CCCC4)cc32)c1C	0.88	-1.6
Cc1ccc(NC(=O)c2ccc3c(c2)N(Cc2cccc(Cl)c2)C(=O)c2ccccc2S3=O)cc1 (configuration not stated)	0.98	-0.56
CCn1c(COc2cc(C)ccc2C(C)C)nc2ccccc21	1	1.3
c1ccc(CNc2cccc3nonc23)cc1	1	0.075
O=C(Nc1ccc(Br)cc1)C1CCN(S(=O)(=O)c2cccs2)CC1	1.1	2.6
CC(C(=O)N1CCC(C(N)=O)CC1)C1Sc2ccccc2N(Cc2ccc(F)cc2Cl)C1=O (configuration not stated)	1.1	1.6
CCOC(=O)N1CCC(NC(=O)CCCN2C(=O)CSc3ncccc32)CC1	1	0.044
CCC(C(=O)N1CC(=O)Nc2ccc(C)cc2C1c1ccccc1)c1ccccc1 (configuration not stated)	1.1	1.1
CCC(C)NC(=O)c1ccc2c(c1)ncn2-c1ccc(OC)cc1 (configuration not stated)	0.84	-2
CCCCNC(=O)c1c[nH]c2ccc(S(=O)(=O)N(C)Cc3ccccc3)cc2c1=O	1.1	0.095
CC(=O)N1c2ccccc2N(Cc2ccccc2)C(=O)C1(C)C	0.86	-4.9
CCn1c(-c2nonc2NC(=O)c2ccc(C(C)(C)C)cc2)nc2ccccc21	1	0.082
CCCCNc1c2c(nc3ccc(Br)cc13)CC(C)(C)CC2=O	1.1	1

Other structures
COc1cc2c(C(=O)Nc3ccc(Oc4ccccc4)cc3)cn(C)c(=O)c2cc1OC
  CBX7 inh: 1; CBX7 inh z-score: -0.052
Cc1ccc(Cl)cc1NC(=O)C1CCCN(S(=O)(=O)c2cccc3cccnc23)C1 (configuration not stated)
  CBX7 inh: 0.97; CBX7 inh z-score: -0.4
Cc1ccc(S(=O)(=O)N(CC(=O)N2CCCCC2)c2ccccc2C)cc1
  CBX7 inh: 1.2; CBX7 inh z-score: 3.1
Cc1ccc(C(=O)NCCc2ccc(S(N)(=O)=O)cc2)cc1
  CBX7 inh: 0.95; CBX7 inh z-score: -1.3
Cc1nc(N2CCOCC2)c2c(C)c(C(=O)NC3CCCCCC3)sc2n1
  CBX7 inh: 0.97; CBX7 inh z-score: -0.89
O=C(NCc1cccs1)c1cc(-c2ccc3c(c2)OCO3)on1
  CBX7 inh: 1; CBX7 inh z-score: 0.22
COC(=O)C(C)n1cnc2c(nnn2-c2ccc(OC)cc2)c1=O (configuration not stated)
  CBX7 inh: 0.96; CBX7 inh z-score: -0.89
CCN(CC)c1nc(C)nc2sc(C(=O)Nc3ccc(C)c(F)c3)c(C)c12
  CBX7 inh: 1; CBX7 inh z-score: 0.82
Cc1ccc(C2CC(=O)NC3=C2C(=O)CCC3)cc1Br (configuration not stated)
  CBX7 inh: 1.1; CBX7 inh z-score: 1.6
CCOC(=O)C1CCCN(C(=O)c2c(-c3ccccc3)noc2C)C1 (configuration not stated)
  CBX7 inh: 1; CBX7 inh z-score: 0.87
NS(=O)(=O)c1ccc(NC(=O)CSc2ncn[nH]2)cc1
  CBX7 inh: 0.94; CBX7 inh z-score: -1.7
CN(CC(=O)N1CCCCCC1)S(=O)(=O)c1ccc2c(c1)n(C)c(=O)c(=O)n2C
  CBX7 inh: 1.1; CBX7 inh z-score: 1.2
CCCOc1ccc(N2C(=O)CC(NCCc3ccc(OC)cc3)C2=O)cc1 (configuration not stated)
  CBX7 inh: 0.99; CBX7 inh z-score: -0.15
COc1ccc(Cl)cc1NC(=O)c1c(NCc2ccc(OC)c(OC)c2)sc2c1CCC2
  CBX7 inh: 0.9; CBX7 inh z-score: -2
COc1ccc(CN2C(=O)c3ccccc3C2C(=O)NCCCN2CC(C)CC(C)C2)cc1 (configuration not stated)
  CBX7 inh: 0.99; CBX7 inh z-score: -0.38
COc1ccc(Nc2c(-c3ccc(C)cc3)nc3ncccn23)cc1
  CBX7 inh: 1.1; CBX7 inh z-score: 0.36
Clc1ccc(-c2csc(-c3cccnc3)n2)cc1
  CBX7 inh: 1; CBX7 inh z-score: 0.87
CCOC(=O)c1cnc2c(OC)cccc2c1NCC1COc2ccccc2O1 (configuration not stated)
  CBX7 inh: 0.62; CBX7 inh z-score: -0.43
O=C(O)c1ccc(-c2cnc3ccccc3n2)cc1
  CBX7 inh: 1.1; CBX7 inh z-score: 1.6
Cc1ccc(-c2nnc(Oc3ccc(OCc4ccccc4)cc3)c3ccccc23)cc1
  CBX7 inh: 0.95; CBX7 inh z-score: -0.46
Cc1ccc(C(=O)Nc2nc(-c3ccc(F)cc3F)cs2)cc1
  CBX7 inh: 1.2&1; CBX7 inh z-score: 0.79&-0.02
Cc1ccc(C)c(CN2C(=O)CSc3ccc(C(=O)NCCc4ccc(Cl)cc4)cc32)c1
  CBX7 inh: 1; CBX7 inh z-score: 0.96
O=C(NC(C(=O)Nc1cccc(Cl)c1)c1ccccc1)c1ccc2ccccc2n1 (configuration not stated)
  CBX7 inh: 0.79; CBX7 inh z-score: -2.6
Cc1nc2cc(-c3ccccc3)nn2c(C)c1CCC(=O)Nc1ccc(F)cc1F
  CBX7 inh: 1.1; CBX7 inh z-score: 2.1
CC1CC(C)CN(C(=O)CN2C(=O)CSc3ccc(S(=O)(=O)N(C)C4CCCCC4)cc32)C1 (configuration not stated)
  CBX7 inh: 1; CBX7 inh z-score: 0.045

c1ccc(C2(CNc3ccccn3)CCCC2)cc1
  CBX7 inh: 0.83; CBX7 inh z-score: -0.39
CCCCNC(=O)C1CCN(Cc2nc(-c3ccc(OC)c(OC)c3)oc2C)CC1
  CBX7 inh: 1.1; CBX7 inh z-score: 1.3
Cc1ccc(OCC(=O)Nc2nc(-c3ccc(F)cc3F)cs2)cc1
  CBX7 inh: 0.98; CBX7 inh z-score: -0.53
COc1ccc(-c2nc3cc(C)ccn3c2Nc2ccc3c(c2)OCCO3)cc1
  CBX7 inh: 0.88; CBX7 inh z-score: -4.6
O=C(Cn1ncc2ccsc2c1=O)N1CCN(c2ccccc2F)CC1
  CBX7 inh: 0.97; CBX7 inh z-score: -1.1
Cc1cccc(C(CC(=O)NCC2(c3ccccc3)CCCC2)c2ccccc2)c1O (configuration not stated)
  CBX7 inh: 0.97; CBX7 inh z-score: -0.36
CCOC(=O)N1CCN(c2c(NCc3cccc(OC)c3)c(=O)c2=O)CC1
  CBX7 inh: 0.96; CBX7 inh z-score: -1.2
Cc1ccc(C)c(CN2C(=O)c3ccccc3Sc3ccc(C(=O)N4CCOCC4)cc32)c1
  CBX7 inh: 0.98; CBX7 inh z-score: -0.67
CC(C)(C)c1cc(Sc2nnc(-c3ccccc3)c3ccccc23)cc(C(C)(C)C)c1O
  CBX7 inh: 0.86; CBX7 inh z-score: -3.1
CCOc1ccc(Cc2nc(C)c(CC(=O)N3CCCCC3)c(=O)[nH]2)cc1
  CBX7 inh: 0.83; CBX7 inh z-score: -1.8
